RGS16-Gao HTS: regulators of human RGS16-Galphao interaction | bead-based flow cytometry RGS16-Galphao binding, fluorescence; actives lie on both sides | binding response (% of control), % at 10 µM | O15492+P09471 | actives 0.38% (n = 220,000) | AID 1441;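 active = below 25% or above 175%, edge rows of some plates excepted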;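 also: Galphao activated by GDP with aluminum fluoride before binding; 100% = wells without compound and 0% = beads without RGS; some results beyond the cut were filed as inactive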
Target sequence (O15492 whole entry, looked up): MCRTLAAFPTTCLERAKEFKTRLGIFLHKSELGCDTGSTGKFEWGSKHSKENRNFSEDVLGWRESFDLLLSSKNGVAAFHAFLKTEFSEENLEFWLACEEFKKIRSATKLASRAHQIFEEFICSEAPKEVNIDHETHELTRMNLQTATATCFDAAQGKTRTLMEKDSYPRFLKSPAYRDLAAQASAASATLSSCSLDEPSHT
Target sequence (P09471 whole entry, looked up): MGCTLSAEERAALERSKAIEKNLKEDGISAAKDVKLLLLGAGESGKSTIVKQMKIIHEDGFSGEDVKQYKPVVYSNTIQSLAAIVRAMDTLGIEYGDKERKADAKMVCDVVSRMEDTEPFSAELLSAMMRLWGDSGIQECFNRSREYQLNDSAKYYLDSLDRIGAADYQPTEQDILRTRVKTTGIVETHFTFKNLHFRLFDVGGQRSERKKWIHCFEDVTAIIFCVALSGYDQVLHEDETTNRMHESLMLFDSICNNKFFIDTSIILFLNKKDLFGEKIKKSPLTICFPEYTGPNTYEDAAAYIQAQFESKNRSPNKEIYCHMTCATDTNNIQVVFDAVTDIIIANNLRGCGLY
PKD1 kinase inh: blocks activity of human protein kinase D1; Q15139; PKD1 kinase fluorescence polarization assay; AID 797; inhibition, %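 (about 10 µM by stock and volumes)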; actives 0.056% (n = 200,000);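 active = inhibition of 50% or more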;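 also: controls were vehicle for no effect and a reference inhibitor for full effect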
HSV augment: HSV replication enhancement | HSV replication augmentation in cells, fold increase | maximum fold increase | AID 1956 | actives 0.005% (n = 220,000);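 active = peak rise of 1.5-fold or more in the series; inconclusive = self-fluorescent or not available for retest; tested in PC3 cells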;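 also: first round at 10 µM; read as green reporter fluorescence; hits show the peak of a series up to 25 µM; 1 = signal of infected wells without compound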
INS promoter inh: TRM-6 insulin promoter activity inhibition; actives 0.9% (n = 130,000); TRM-6 cells (human fetal islet line), insulin promoter-eGFP reporter, imaging; reporter expression induced with tamoxifen; AID 1273; inhibition, % at 2 µM;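 active = inhibition above the mean plus 3 SD, with well images judged a real hit on visual review, cut at about 60% in these data, passing the limit was not always enough; inconclusive = inhibition over the cutoff but images rejected on review; inactive = inhibition not above the cutoff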
GALR2 ag: activates the human galanin receptor 2; O43603; GALR2-expressing cells, agonist activation read-out; activation, %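 (tested at 5 µM)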; actives 0.48% (n = 140,000);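 active = above mean plus 3 SD of all compounds, about 5% in these data, not always enough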;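 also: 0% = vehicle buffer wells and 100% = reference agonist at full effect; tested in CHO reporter cells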
Target sequence (O43603 whole entry, looked up): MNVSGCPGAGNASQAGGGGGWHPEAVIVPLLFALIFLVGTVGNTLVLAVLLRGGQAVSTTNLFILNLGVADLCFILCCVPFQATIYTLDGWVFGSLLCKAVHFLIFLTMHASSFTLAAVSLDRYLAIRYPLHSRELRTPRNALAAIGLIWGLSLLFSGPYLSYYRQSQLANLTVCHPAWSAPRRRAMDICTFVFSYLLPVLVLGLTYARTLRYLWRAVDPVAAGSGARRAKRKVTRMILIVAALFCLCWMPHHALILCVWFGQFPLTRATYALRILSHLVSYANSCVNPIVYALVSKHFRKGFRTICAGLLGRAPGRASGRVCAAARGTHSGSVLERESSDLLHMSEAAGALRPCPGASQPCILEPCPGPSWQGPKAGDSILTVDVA
INS promoter inh cell count: second read-out of INS promoter inh, no call of its own (marks repeat the call); normalized cell count, %; measured here: cell count, toxicity; reference of the scale not given here;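 cells exposed to compound for 48 h; stained nuclei by imaging scaled within each plate; lower means fewer cells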
HSV augment primary fold: second read-out of HSV augment, no call of its own (marks repeat the call); fold increase; compound at 10 µM; measured here: primary screen fold increase 10 uM; tested in PC3 cells;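 GFP signal in the first replicate; 1 = infected wells without compound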
Starred values were filed as active, the others as inactive; i = inactive; ? = inconclusive; . = no result given.

molecule,INS promoter inh,PKD1 kinase inh,INS promoter inh cell count,RGS16-Gao HTS,HSV augment,GALR2 ag,HSV augment primary fold
CCOC(=O)C(NC(=O)Nc1ccc(Cl)cn1)(Oc1ccc(F)cc1)C(F)(F)F (centres undefined),-23,-3,83,100,i,-1.2,0.88
CC1(C)CC(=O)C(C=Nc2ccc(N)cc2)=C(O)C1,.,6,.,105,i,.,0.95
Cc1ccc(C2(c3ccc(C)cc3)CC2C(=O)Nc2ccc([N+](=O)[O-])cc2O)cc1 (centres undefined),.,-2,.,97,i,-3.3,0.57
COc1ccc(/C=N/OCC(=O)Nc2cc(C)on2)cc1OC,.,-4,.,111,i,-0.8,0.98
CC(=O)Oc1oc(-c2ccccc2)nc1C=Nc1ccccc1,34,-3,170,95,i,-2.1,0.85
OCC1(Cc2ccccc2)CCN(Cc2cnc(-c3ccc(Cl)cc3)nc2)CC1,8,0,94,97,i,.,0.98
CNS(=O)(=O)c1ccc(NC(=O)C2c3ccccc3Oc3ccccc32)cc1,14,2,103,102,i,-0.1,0.72
CCOc1ccccc1NC(=O)CCCn1cc([N+](=O)[O-])cn1,53,4,146,94,i,.,1
Cc1ccc2onc(CC(=O)O)c2c1,.,-9,.,107,i,-0.5,0.86
COc1ccc(/C(N)=N/OC(=O)CN(C)S(=O)(=O)c2ccccc2)cc1,.,4,.,101,i,.,0.88
C=CCn1c(-c2ccc(OC)cc2)nc2ccccc21,27,-6,79,92,i,-1.8,0.88
Cc1ccc(C(=O)NCC(=O)OCC(=O)Nc2cccc(S(=O)(=O)N3CCCC3)c2)cc1C,.,.,.,95,i,.,0.68

Next section
molecule,INS promoter inh,PKD1 kinase inh,INS promoter inh cell count,RGS16-Gao HTS,HSV augment,GALR2 ag,HSV augment primary fold
O=c1c(-n2cncn2)c[nH]n1-c1cccc(Cl)n1,92*,-1,44*,115,i,.,0.99
CCOC(=O)c1c(CC(C)C)csc1/N=C/C1=C(O)CCCC1=O,.,.,.,103,i,.,1.2
CN(C(=O)CSc1nnc2ccccn12)C1CCS(=O)(=O)C1 (centres undefined),50,-10,93,101,i,-2.6,1.1
O=C(O)CNC(=O)/C(=C\c1ccc2c(c1)OCO2)NC(=O)c1ccc(Br)cc1,0,4,107,101,i,.,0.97
N#Cc1ccccc1S(=O)(=O)N1CCN(c2ccc(S(=O)(=O)N3CCOCC3)cn2)CC1,.,-11,.,81,i,-1.3,0.87
CCc1c(C)[nH]c2c(C)cccc2c1=O,39,-2,39,102,i,-0.1,1
CCCc1cc(N2CCN(C(=O)c3ccco3)CC2)n2c(nc3ccccc32)c1C#N,-41,-12,69,88,i,2.8,0.88
COc1ccc(S(=O)(=O)NCC(=O)N(CC(=O)NCC2CCCO2)c2ccccc2C)cc1 (centres undefined),-10,-8,127,101,i,-0.8,0.78
O=C(NC1CCCCC1)C(c1cccs1)N(C(=O)c1ccco1)c1ccc2c(c1)OCCO2 (centres undefined),12,-1,118,114,?,-2.2,.
Cc1ccccc1N/N=C/c1sc(=O)n(Cc2cccc(C(=O)O)c2)c1Cl,.,.,.,99,i,.,0.95
CC(=O)Nc1ccc(OCC(O)Cn2c3ccccc3c3ccccc32)cc1 (centres undefined),13,0,98,106,i,-1.0,0.78
O=C(/C=C/c1ccc(Cl)cc1Cl)NCCSCc1ccccc1,9,-2,130,96,i,-0.9,1

Next part
molecule,INS promoter inh,PKD1 kinase inh,INS promoter inh cell count,RGS16-Gao HTS,HSV augment,GALR2 ag,HSV augment primary fold
O=C1C(C2=NC(C(=O)O)C3C(=O)N(c4ccccc4)C(=O)C23)=C(O)c2ccccc21 (centres undefined),.,15,.,102,i,-0.5,0.86
O=C(O)c1nn(CCOc2cccc(Cl)c2)c(=O)c2ccccc12,.,-3,.,103,i,.,0.99
CCOc1ccc(S(=O)(=O)Nc2cccc(C(=O)N3CCN(c4ccc(OC)cc4)CC3)c2)cc1,.,0,.,104,i,0.6,1.1
Cc1ccc(-c2[nH]c(-c3ccccc3)nc2SCC(=O)NCC2CCCO2)cc1 (centres undefined),-57,8,101,.,i,-0.4,0.99
O=C(/C=C/c1cccc(Cl)c1)NCc1cccs1,-35,-4,94,99,i,-2.8,0.8
O=C(NNC(=O)c1cccs1)c1ccc([N+](=O)[O-])cc1,-42,-5,78,112,i,.,0.84
Cc1ccc(Nc2cc(-n3nc(C)cc3C)ncn2)cc1,10,-1,103,113,i,-1.2,0.88
CN1c2ccccc2-c2nc3ccccc3n2C1c1ccco1 (centres undefined),.,-1,.,103,i,-1.1,1
Cc1ccc(NC(=O)CN2C(=O)c3ccccc3C2=O)nc1,.,0,.,103,i,.,1.1
CCc1ccc(N2C(=O)c3sc4nnc(-c5ccccc5)c(=O)n4c3C2=O)cc1,-36,-8,94,102,i,-2.5,1
CCCCC1CCC(C(=O)Nc2ccccc2)CC1 (centres undefined),9,-2,94,102,i,-0.9,1
Cc1ccc(S(=O)(=O)N2CCOCC2)cc1C(=O)NC(=S)N1CC(C)OC(C)C1 (centres undefined),.,.,.,107,i,.,0.91

(more compounds)
molecule,INS promoter inh,PKD1 kinase inh,INS promoter inh cell count,RGS16-Gao HTS,HSV augment,GALR2 ag,HSV augment primary fold
Cc1nc2c3ccccc3n(Cc3ccccc3F)c2s1,-17,-23,69,112,i,1.7,0.96
O=C(O)C1CC=CCC1C(=O)NNc1ccccc1 (centres undefined),.,-8,.,100,i,.,1
C(=N\C(/N=C/c1ccco1)c1ccco1)/c1ccco1,.,-14,.,98,i,-0.7,1.1
CCc1nnc(NC(=O)C2CC(=O)N(CCc3ccccc3)C2)s1 (centres undefined),.,-6,.,125,i,-2.2,1.1
Cc1cc(NC(=O)CN2C(=O)CC(c3ccco3)Sc3ccccc32)no1 (centres undefined),.,1,.,98,i,-1.9,0.84
O=c1[nH]c2cc3c(cc2cc1CN(CCO)S(=O)(=O)c1ccccc1Cl)OCCO3,3,-5,87,108,i,-2.0,0.92
CC1CCN(S(=O)(=O)c2ccc(S(=O)(=O)NCC(=O)C(C)(C)C)cc2)CC1,31,0,167,-12,i,-0.2,0.92
CCCn1c(=O)[nH]c(=O)c2c1nc(-c1cccs1)n2CCOC,20,5,160,101,i,.,1
CCC(CC)=C(C#N)C(=O)NC1CCCCC1,7,-3,113,112,i,-0.3,0.95
COc1cc(C=C(c2nc3ccccc3s2)c2nc3ccccc3s2)cc(OC)c1O,-32,-1,101,110,?,0.3,.
Cc1ccccc1NC(=S)N1CCC(C(=O)c2ccc(F)cc2)CC1,28,6,145,59,i,-4.1,0.98
CC(C)Oc1cccc(C(=O)NC2=NCCS2)c1,50,-9,78,98,i,.,1.1

(list continues)
molecule,INS promoter inh,PKD1 kinase inh,INS promoter inh cell count,RGS16-Gao HTS,HSV augment,GALR2 ag,HSV augment primary fold
O=S(=O)(c1ccc2oc3ccc(S(=O)(=O)N4CCCC4)cc3c2c1)N1CCCC1,-146,0,151,.,.,-1.4,.
COc1ccc(N(CC(=O)NC2CCCCC2)C(=O)CCCC(=O)Nc2ccccn2)c(OC)c1,.,11,.,103,i,-0.8,0.99
N=C(N=C(N)N)N1CCc2ccccc21,.,-8,.,101,i,.,0.98
CCc1cc(CNC(=O)CC2C(=O)NCCN2Cc2cccc(OC)c2)on1 (centres undefined),.,-6,.,100,i,.,0.99
O=[N+]([O-])c1ccc2c(c1)oc1ccccc12,5,3,72,88,i,-0.9,0.92
CCCCC(C(=O)O)C(C)CC(=O)NNC(=O)c1ccco1 (centres undefined),-8,-3,137,107,i,.,0.8
CCn1c(=N)n(CC(=O)OC)c2ccccc21,36,-13,87,101,i,-0.6,0.97
Cc1ccc(NC(=O)c2ccccc2NC(=O)CCC(=O)O)cc1,-7,-2,112,98,i,-1.9,1.1
O=S(=O)(c1ccc2c(c1)nc1n2CCC1)N1CCOCC1,0,-4,157,100,i,0.1,0.68
CCc1ccccc1NC(=O)Nc1cccn(Cc2ccccc2F)c1=O,.,-6,.,105,i,.,1
CCCCC(=O)NC(=S)NNC(=O)CC#N,61,-8,64,102,i,-0.6,0.9
Cc1cc(=O)oc2cc(OCC(=O)N3CC(C)OC(C)C3)ccc12 (centres undefined),54,-10,118,99,i,-3.2,0.91

Filtered by structure: the compounds so far containing a nitro group on carbon.
molecule,INS promoter inh,PKD1 kinase inh,INS promoter inh cell count,RGS16-Gao HTS,HSV augment,GALR2 ag,HSV augment primary fold
Cc1ccc(C2(c3ccc(C)cc3)CC2C(=O)Nc2ccc([N+](=O)[O-])cc2O)cc1 (centres undefined),.,-2,.,97,i,-3.3,0.57
CCOc1ccccc1NC(=O)CCCn1cc([N+](=O)[O-])cn1,53,4,146,94,i,.,1
O=C(NNC(=O)c1cccs1)c1ccc([N+](=O)[O-])cc1,-42,-5,78,112,i,.,0.84
O=[N+]([O-])c1ccc2c(c1)oc1ccccc12,5,3,72,88,i,-0.9,0.92

(continued)
molecule,INS promoter inh,PKD1 kinase inh,INS promoter inh cell count,RGS16-Gao HTS,HSV augment,GALR2 ag,HSV augment primary fold
c1ccc(COc2cccc(CNn3cnnc3)c2)cc1,28,-8,65,106,i,-1.0,1
CC1(C)Cc2c(c(N3CCCC3)nc3sc4c(N5CCNCC5)ncnc4c23)CO1,.,.,.,112,i,.,0.83
C=CCN(CC=C)C(=S)Nc1cc(Cl)ccc1OC,.,1,.,92,i,.,1.2
CCOCCCNC(=S)NCCCNc1nc2ccc(C)cc2cc1C#N,-20,-1,89,83,i,.,0.97
CCOC(=O)c1cc2oc(C(c3nnnn3C3CCCCC3)N3CCOCC3)cc2[nH]1 (centres undefined),-44,-6,169,104,i,-1.2,0.61
CCn1c(=O)c2cc(S(=O)(=O)NC3CCCCC3)ccc2n(CC)c1=O,54,-14,78,88,i,0.1,0.67
COc1cc(C(=O)N/C(=C\c2cn(S(=O)(=O)N(C)C)c3ccccc23)C(=O)NCCCO)cc(OC)c1OC,-7,-1,73,97,i,.,1
Cc1cc(-c2nnc(CCC(=O)N(CC3CCC3)CC3CCCO3)o2)no1 (centres undefined),.,-3,.,9,i,.,0.98
Cn1c(CC(=O)Nc2ccccc2C(F)(F)F)c(Sc2ccccc2)c2ccccc21,-21,-3,106,109,i,-0.1,0.9
c1ccc(CNc2nc(NCc3ccccc3)c3ccccc3n2)cc1,.,.,.,100,i,.,0.65
Cc1ccc(S(=O)(=O)n2nc(OC(=O)C(C)(C)C)cc2N)cc1,21,-14,133,99,i,-1.6,1.1
COc1ccccc1N1CN(CCc2ccccc2)CNC1=S,.,.,.,104,i,.,0.86

(continued)
molecule,INS promoter inh,PKD1 kinase inh,INS promoter inh cell count,RGS16-Gao HTS,HSV augment,GALR2 ag,HSV augment primary fold
COc1cc(C(=O)Nc2oc(-c3ccccc3)c(-c3ccccc3)c2C#N)cc(OC)c1OC,.,7,.,104,i,0.2,0.91
CCOCCCNC(=O)C(NC(=O)c1ccc(NC(C)=O)cc1)c1ccc(OC)cc1 (centres undefined),31,0,111,104,i,-1.6,1
NS(=O)(=O)c1ccc(NC(=O)COC(=O)CCc2ccccc2)cc1,.,.,.,102,i,.,1.2
CCOC(=O)CCSc1nc(C)c2ccccc2n1,18,-4,70,104,i,-0.6,0.92
Cc1c[nH]c2cccc(OCC(O)CNC(C)(C)C)c12 (centres undefined),47,-9,68,111,i,-1.9,1.1
CCC(C)(C)n1nnnc1C(c1cc2ccc(OC)cc2[nH]c1=O)N1CCc2ccccc2C1 (centres undefined),15,-14,113,103,i,2.1,0.92
Cc1cccc(CSc2nnnn2-c2ccccc2)c1,25,-1,107,89,i,0.0,0.96
COc1ccccc1-n1cnnc1SCC(=O)c1c[nH]c2ccccc12,-10,0,108,101,i,0.0,0.97
N#C/C(=C\c1ccc(N2CCOCC2)o1)C(=O)NCCc1ccccc1,.,2,.,96,?,.,.
C#CCOc1ccc2c(C)cc(=O)oc2c1,0,1,87,97,i,-3.0,1
O=C(NCc1ccco1)C1(S(=O)(=O)c2ccc(Cl)cc2)CC1,-270,-6,29,100,i,0.3,0.89
COc1cc(NS(=O)(=O)c2ccc(NC(=S)NC(=O)c3sc4ccccc4c3Cl)cc2)ncn1,.,9,.,93,i,-0.7,1.1

(continued)
molecule,INS promoter inh,PKD1 kinase inh,INS promoter inh cell count,RGS16-Gao HTS,HSV augment,GALR2 ag,HSV augment primary fold
Nc1nc(-c2cccnc2)nc(N2CCCCC2)n1,-6,-8,155,101,i,-3.6,1
O=C(CNc1cccc(Cl)c1)c1ccc(Cl)cc1,.,7,.,94,i,-1.6,0.99
COc1cc2c(cc1OC)CN(C(=O)CCCOc1ccc(Cl)cc1Cl)CC2,34,9,82,100,i,-0.8,0.98
Cc1cc(C(=O)N/N=C/c2ccc(-c3ccc(C)c(Cl)c3)o2)n[nH]1,.,.,.,102,i,.,0.8

Screens as filed in PubChem BioAssay.
